Beta apoptosis: blocks beta cell apoptosis; INS-1E cytokine-induced death, ATP luminescence, 48 h; percent of positive-control rescue, neutral wells zero; protection from apoptosis, % (concentration not given with the values); 300,000 compounds, 0.8% hits; AID 435005;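 active = all replicates at 75% or more, or half of them and the mean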;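 also: 0% = cytokine-treated negative control wells and 100% = positive control rescue; higher means more ATP so stronger rescue from cytokine killing; wells of about 40 µL received 100 nL stock; the first replicate is given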
rRNA inh HTS: inhibitors of bacterial rRNA selective over humanized ribosomes; E. coli WT GFP vs humanized-ribosome RFP mutants, fluorescence, 24 h; active compounds read low; DMSO median 0, no signal -100; GFP signal change (wild-type ribosome), % (concentration not given with the values); 350,000 compounds, 1.6% hits; AID 720706;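 active = significant combined selectivity score with lowered wild-type GFP, culture density cut under 30%, mutant RFP and density less affected; inactive = any of these conditions unmet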; also: one replicate is shown; some compounds called inactive have numbers as strong as hits
UCH37 inh: blocks the human deubiquitinase UCH37 | Q9Y5K5 | purified proteasome/UCH37, Ub-AMC cleavage fluorescence | AID 588478 | 330,000 compounds, 0.33% hits | inhibition, % (test concentration not listed);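 active = mean of two replicates above 20%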;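 also: 0% = compound-free wells with enzyme and 100% = wells lacking proteasome; stock transfer was 100 nL into about 20 µL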
Target sequence (Q9Y5K5 whole entry, looked up): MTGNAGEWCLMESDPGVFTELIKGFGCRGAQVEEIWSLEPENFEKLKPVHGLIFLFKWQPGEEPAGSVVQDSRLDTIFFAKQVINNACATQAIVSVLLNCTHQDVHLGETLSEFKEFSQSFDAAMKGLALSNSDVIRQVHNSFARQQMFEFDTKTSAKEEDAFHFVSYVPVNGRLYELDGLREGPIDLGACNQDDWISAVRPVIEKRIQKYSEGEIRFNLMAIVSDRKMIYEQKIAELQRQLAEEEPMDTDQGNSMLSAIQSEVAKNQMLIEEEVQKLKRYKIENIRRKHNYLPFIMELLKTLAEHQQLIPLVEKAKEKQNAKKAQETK
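Schedule: 30 min plus 25 min, room temperature / Material: human UCH37 within purified proteasomes / Technique: AMC fluorescence intensity at 355/460 nm / Buffer or medium: pH 7.4 Tris-HCl (50 mM) with ovalbumin, ATP-MgCl2, DTT / Controls: wells without proteasome as full block, compound-free enzyme plus substrate as uninhibited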
T cruzi repl: blocks replication of Trypanosoma cruzi; inhibition, % (no concentration beside the values); T. cruzi beta-gal in NIH3T3, luminescence, 90 h; AID 1885; 300,000 compounds, 1.4% hits;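 active = mean inhibition across valid replicates above about 55%, limit read from the data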;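 also: signal also drops with host cell toxicity which is not excluded here; 0% = plate median of DMSO wells and 100% = zero luminescence signal; higher percent means less beta-gal luminescence so fewer parasites; stock transfer was 50 nL into about 50 µL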
Ecoli growth: inhibitors of Escherichia coli growth | OD600, 23 h; active compounds read low | OD600 absorbance (test concentration not listed) | 330,000 compounds, 0.21% hits | AID 1053175;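 active = OD600 absorbance below the run mean of sample wells minus 3.6 SD, in any replicate, cut at about 0.56 in these data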;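 also: stock transfer was 300 nL into about 60 µL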
Bfl-1 A1 inh: inhibitors of the anti-apoptotic protein A1, read as caspase activation | MEF A1-2A-BIM cells, Caspase-Glo 3/7 luminescence, 3 h; percent of clofoctol response, vehicle zero | caspase activation, % (no concentration beside the values) | 330,000 compounds, 0.066% hits;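 active = over half of replicate activation scores above 10%, or exactly half above 10 with the replicate mean above 10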;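 also: wells of about 30 µL received 50 nL stock; many hits fall short of the cut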
AF4-AF9 inh: MLL-AF4/AF9 protein interaction inhibition; P42568; AlphaScreen, biotin-AF4 peptide binding to FLAG-AF9; inhibition, % at 10 µM; 350,000 compounds, 0.47% hits; AID 651704;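 active = every replicate reaching a set inhibition limit, whatever the replicate mean, cut at about 25% in these data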;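 also: 0% = plate neutral control median and 100% = total signal loss; the record names both 10 and 1 µM as test concentration; the first replicate is given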
Target sequence (P42568 whole entry, looked up): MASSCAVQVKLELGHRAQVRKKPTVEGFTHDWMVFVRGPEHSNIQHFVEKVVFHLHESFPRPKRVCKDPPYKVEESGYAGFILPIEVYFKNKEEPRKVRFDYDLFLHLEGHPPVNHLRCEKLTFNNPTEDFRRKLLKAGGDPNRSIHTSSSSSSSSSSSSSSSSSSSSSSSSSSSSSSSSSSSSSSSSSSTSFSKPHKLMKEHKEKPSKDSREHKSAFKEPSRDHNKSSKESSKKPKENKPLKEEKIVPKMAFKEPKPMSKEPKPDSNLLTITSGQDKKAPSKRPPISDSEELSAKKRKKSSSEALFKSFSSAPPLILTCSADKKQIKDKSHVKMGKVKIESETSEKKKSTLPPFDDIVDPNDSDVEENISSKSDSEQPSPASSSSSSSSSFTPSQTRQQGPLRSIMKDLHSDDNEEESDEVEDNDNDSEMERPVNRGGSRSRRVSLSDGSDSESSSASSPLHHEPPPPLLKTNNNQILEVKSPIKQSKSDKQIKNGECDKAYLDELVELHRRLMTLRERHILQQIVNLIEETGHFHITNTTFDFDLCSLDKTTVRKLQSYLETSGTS
FGF22 binding: FGF22 (human) thermal shift binding; 340,000 compounds, 1.5% hits; Q9HCT0; recombinant FGF22 thermal shift, SYPRO orange fluorescence; percent of sucrose octasulfate shift, DMSO zero; calls only at 9.99 µM; AID 651658;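 active = melting point raised past a set limit in the mean and every replicate; three in four hits are not shown here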
Target sequence (Q9HCT0 whole entry, looked up): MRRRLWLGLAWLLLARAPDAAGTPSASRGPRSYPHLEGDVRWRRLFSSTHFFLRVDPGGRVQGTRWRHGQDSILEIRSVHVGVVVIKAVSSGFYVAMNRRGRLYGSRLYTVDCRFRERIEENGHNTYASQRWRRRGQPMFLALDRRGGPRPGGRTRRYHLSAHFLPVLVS
rRNA inh HTS OD600: also measured in rRNA inh HTS; calls as there; OD600 change, %; measured here: OD600 growth;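 optical density of the mix in the first replicate; 0 = DMSO median and -100 = no signal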
rRNA inh HTS RFP: second read-out of rRNA inh HTS, no call of its own (marks repeat the call); RFP signal change, %; measured here: RFP humanized mutant strains;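 first replicate; 0 = DMSO median and -100 = no signal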
* = called active by the depositor; i = inactive; nt = not tested or not shown.

SMILES | Beta apoptosis | rRNA inh HTS | rRNA inh HTS OD600 | rRNA inh HTS RFP | UCH37 inh | T cruzi repl | Ecoli growth | Bfl-1 A1 inh | AF4-AF9 inh | FGF22 binding
Cc1ccc([N+](=O)[O-])cc1S(=O)(=O)Nc1ccc(-c2ccc(N3CCOCC3)nn2)cc1 | 2 | -13 | -2 | -1.1 | 3.1 | 16 | 0.68 | 0.3 | 0.3 | i
CCc1nc(SCC(=O)c2ccc3c(c2)OCCO3)c2ccccc2n1 | -18 | nt | nt | nt | 7.4 | 31 | 0.73 | -0.2 | nt | nt
COc1cc2c(c(OC)c1OC)-c1ccc(OC)c(=O)cc1C(NC(C)=O)CC2 (centres undefined) | nt | 0 | 13 | 0.2 | 14 | 28 | 0.66 | 1.5 | 0.0 | i
CCNS(=O)(=O)c1ccc(OC)c(C)c1 | 4 | nt | nt | nt | 1.2 | 6 | 0.66 | 1.1 | nt | nt
O=C(NCC(c1ccco1)N1CCCCC1)c1cc2c(s1)CCCC2 (centres undefined) | 3 | -1 | 5 | 2.0 | 1.0 | nt | 0.69 | -0.3 | 4.0 | i
COc1ccc(N2CC(C(=O)N3CCN(c4ccccc4OC)CC3)CC2=O)cc1 (centres undefined) | -1 | 8 | 10 | -1.5 | -0.9 | -7 | 0.66 | 0.8 | 0.6 | i
CCOC(=O)CN1CC23C=CC(O2)C(C(=O)Nc2cc(OC)ccc2OC)C3C1=O (centres undefined) | 9 | 15 | 10 | 1.5 | 3.5 | -16 | 0.76 | -0.2 | 1.1 | i
CC1CCN(c2ccccc2NC(=S)NC(=O)c2cccs2)CC1 | -3 | nt | nt | nt | 1.8 | 24 | 0.72 | 0.7 | nt | nt
Cc1cc(C)cc(NC(=O)N2CCN(Cc3ccc4c(c3)OCO4)CC2)c1 | -2 | 14 | -4 | 1.0 | 2.5 | nt | 0.65 | 0.1 | -6.4 | i
Cc1ccc(CNC(=O)c2cccc(OCc3c(C)noc3C)c2)cc1 | 3 | nt | nt | nt | 0.8 | 9 | 0.68 | 1.2 | nt | nt
CCN1C(=O)C(C(=O)Nc2ccc(OC)cc2)C2CC1(C)Oc1ccccc12 (centres undefined) | 3 | nt | nt | nt | 5.5 | nt | 0.7 | 0.2 | nt | nt
O=C(c1ccccc1F)n1c2c(c3ccccc31)CCCC2 | 1 | -9 | -5 | 0.8 | 4.2 | 7 | 0.68 | 0.3 | 0.5 | i
CN(CCOc1ccccc1)CC(=O)Nc1cc([N+](=O)[O-])ccc1Cl | nt | -20 | -30 | -0.2 | -0.9 | 10 | 0.67 | 0.6 | 2.1 | i
CN(C)c1nc(/C=C(\C#N)C(N)=O)c(Cl)n1-c1ccc(F)cc1 | -6 | 7 | 1 | 1.4 | 5.7 | -38 | 0.7 | -0.2 | 1.0 | i
O=C(O)CNS(=O)(=O)c1ccc(Br)s1 | -4 | nt | nt | nt | 3.4 | -22 | 0.75 | 1.2 | nt | nt
COc1ccc(C2=NN(C(C)=O)C(c3ccccc3)C2)cc1 (centres undefined) | -6 | -9 | -14 | -1.7 | -2.5 | -1 | 0.67 | -2.6 | 1.7 | i
CSc1ncccc1C(=O)OCC(=O)NC1CCS(=O)(=O)C1 (centres undefined) | -5 | nt | nt | nt | -1.2 | -5 | 0.75 | -0.8 | nt | nt
Cc1ccnc(Nc2nc(-c3ccc(F)cc3)cs2)c1 | 8 | -36* | -39* | -7.2* | 3.8 | 26 | 0.67 | -1.5 | 6.1 | i
CC(=O)c1cccc(S(=O)(=O)Nc2c(C)nn(C)c2C)c1 | -1 | 2 | 7 | -0.1 | 2.8 | nt | 0.7 | -1.5 | 1.6 | i
Cc1cc(C)cc(NC(=O)Nc2ccc(Cl)cn2)c1 | 0 | 14 | 16 | 1.4 | 2.0 | 3 | 0.73 | 0.0 | -1.3 | i
CCOC(=O)c1sc(-n2[nH]c(C)cc2=O)nc1C | -2 | nt | nt | nt | 1.4 | -14 | 0.77 | 0.1 | nt | nt
COc1ccc(C)cc1NC(=S)N1CC(C)OC(C)C1 (centres undefined) | -2 | -1 | 7 | -0.7 | 4.6 | -20 | 0.69 | 0.7 | -2.2 | i
CN(C)c1nc(OCCNC(=O)Nc2ccccc2)nc(N(C)C)n1 | -4 | nt | nt | nt | 2.3 | 0 | 0.68 | 1.7 | nt | nt
COc1ccc(N2C(=O)C(CC(=O)Nc3ccccc3)N(Cc3cccs3)C2=O)cc1 (centres undefined) | -2 | -6 | -3 | -7.7 | 5.7 | -11 | 0.65 | 0.3 | -2.5 | i
COc1ccc(C2=NS(=O)(=O)N(C)C(C(=O)N3CCC(C(N)=O)CC3)=C2)cc1 | -4 | 3 | 3 | -3.5 | 1.3 | 3 | 0.66 | -0.5 | -5.3 | i
COc1cc(C(=S)N2CCOCC2)cc(OC)c1OS(=O)(=O)c1ccc(NC(C)=O)cc1 | 7 | nt | nt | nt | 1.4 | -3 | 0.71 | 0.0 | nt | nt
COc1ccccc1NC(=O)CSc1nnc(CC(=O)Nc2ccccc2F)n1C | 7 | 7 | 7 | 2.2 | 1.6 | -12 | 0.67 | 0.6 | 1.5 | i
Cc1cc([N+](=O)[O-])cc(C)c1OCC(=O)N/N=C/c1ccc(OC(=O)c2ccccc2Br)cc1 | -5 | 16 | 12 | 1.2 | nt | -8 | nt | 0.0 | 2.8 | i
COc1cc(OC)cc(C(=O)N2CCN(c3ccccc3F)CC2)c1 | -9 | nt | nt | nt | 0.9 | 14 | 0.69 | -1.3 | nt | nt
COc1ccccc1C1(CC(=O)O)CCOC(C)(C)C1 (centres undefined) | -4 | nt | nt | nt | -2.4 | -20 | 0.72 | 1.4 | nt | nt
O=C1CCCCCCC1Sc1ccccc1[N+](=O)[O-] (centres undefined) | -33 | nt | nt | nt | 6.7 | -2 | 0.8 | -0.3 | nt | nt
CCOC(=O)Nc1ccc(C)cc1NC(=O)OCC | -1 | 8 | 3 | -3.7 | -2.1 | -8 | 0.73 | -0.1 | nt | nt
CN(C)c1ccc(/C=N/N=C(N)N)cc1[N+](=O)[O-] | -2 | 3 | 6 | -0.3 | nt | 78* | nt | -0.2 | 8.9 | i
CC(C)n1cnc2cc(NCc3ccco3)ccc21 | -4 | 11 | 9 | -3.0 | -2.4 | 2 | 0.7 | 1.4 | 19 | i
CCOC(=O)C1CCCN(S(=O)(=O)c2ccc(S(=O)(=O)N(CC)CC)cc2)C1 (centres undefined) | 110* | 9 | 3 | -0.3 | 2.6 | 27 | 0.65 | -0.5 | -3.6 | i
COC(=O)[C@@]12CCCCN1[C@H](c1ccc(-c3ccc(C(C)=O)cc3)c(OC)c1)[C@@H]1C(=O)N(C)C(=O)[C@@H]12 | 2 | -1 | -7 | 22 | 3.2 | 3 | nt | -0.2 | 3.9 | i
CCS(=O)(=O)Nc1ccc(-c2nc3cccnc3s2)cc1 | -13 | -13 | -21 | -6.9 | i | -11 | 0.74 | -7.9 | 1.4 | i
O=C1CCN(Cc2ccc(Br)cc2)CCN1[C@H](CO)c1ccccc1 | -2 | -4 | 8 | -7.0 | 4.4 | -21 | nt | -0.7 | -0.2 | i
COc1cccc(N=Nc2ccc(O)c3ncccc23)c1 | 104* | 8 | 0 | -1.1 | nt | 34 | nt | -8.3 | 9.9 | i
Cc1cccc2nc(CSc3nc4cc([N+](=O)[O-])ccc4s3)cn12 | 7 | -34 | -55 | -16 | 4.0 | 1 | 0.7 | 0.7 | 7.5 | i

Rewritten with values under each structure: part of the list above
Results follow in this order: Beta apoptosis	rRNA inh HTS	rRNA inh HTS OD600	rRNA inh HTS RFP	UCH37 inh	T cruzi repl	Ecoli growth	Bfl-1 A1 inh	AF4-AF9 inh	FGF22 binding
> CCOC(=O)c1sc(-n2[nH]c(C)cc2=O)nc1C
    -2	nt	nt	nt	1.4	-14	0.77	0.1	nt	nt
> COc1ccc(C)cc1NC(=S)N1CC(C)OC(C)C1 (centres undefined)
    -2	-1	7	-0.7	4.6	-20	0.69	0.7	-2.2	i
> CN(C)c1nc(OCCNC(=O)Nc2ccccc2)nc(N(C)C)n1
    -4	nt	nt	nt	2.3	0	0.68	1.7	nt	nt
> COc1ccc(N2C(=O)C(CC(=O)Nc3ccccc3)N(Cc3cccs3)C2=O)cc1 (centres undefined)
    -2	-6	-3	-7.7	5.7	-11	0.65	0.3	-2.5	i
> COc1ccc(C2=NS(=O)(=O)N(C)C(C(=O)N3CCC(C(N)=O)CC3)=C2)cc1
    -4	3	3	-3.5	1.3	3	0.66	-0.5	-5.3	i
> COc1cc(C(=S)N2CCOCC2)cc(OC)c1OS(=O)(=O)c1ccc(NC(C)=O)cc1
    7	nt	nt	nt	1.4	-3	0.71	0.0	nt	nt
> COc1ccccc1NC(=O)CSc1nnc(CC(=O)Nc2ccccc2F)n1C
    7	7	7	2.2	1.6	-12	0.67	0.6	1.5	i

Following part.
SMILES | Beta apoptosis | rRNA inh HTS | rRNA inh HTS OD600 | rRNA inh HTS RFP | UCH37 inh | T cruzi repl | Ecoli growth | Bfl-1 A1 inh | AF4-AF9 inh | FGF22 binding
CCN1CCN(c2ccc(S(=O)(=O)N3CCCCC3)cc2NC(=O)c2cccc(NC(C)=O)c2)CC1 | 4 | 6 | 6 | 4.2 | 2.7 | 0 | 0.7 | -0.5 | 15 | i
COC(=O)c1sc2nc(CSc3nc4ccc(C)cc4[nH]3)[nH]c(=O)c2c1C | 6 | nt | nt | nt | nt | 12 | 0.73 | 0.6 | nt | nt
CC1CCN(c2c(NCc3ccc(C(=O)N4c5ccccc5CC4C)cc3)c(=O)c2=O)CC1 (centres undefined) | 10 | 0 | -3 | 11 | 4.0 | -9 | 0.73 | -0.1 | -6.9 | i
Cc1ccc(-n2ncc(C(=O)Nc3ccc(Cl)cc3)c2C2CCNCC2)cc1C | -17 | -11 | -13 | -5.5 | 6.9 | 32 | 0.68 | -0.1 | 6.7 | i
O=C(C(=O)N1CCN(Cc2ccc3c(c2)OCO3)CC1)c1c[nH]c2ccccc12 | 0 | 0 | 2 | 1.9 | 2.4 | 0 | 0.64 | 0.1 | 2.3 | i
O=C(CNc1ccccc1-c1ccccc1)NCc1ccccc1 | -2 | nt | nt | nt | -1.5 | 14 | 0.63 | -2.5 | nt | nt
CCCCN(C(=O)c1ccc(Cl)c(S(=O)(=O)N2CCOCC2)c1)c1c(N)n(CCC)c(=O)[nH]c1=O | -5 | 15 | 6 | -1.3 | 1.1 | -7 | 0.7 | 0.1 | -0.7 | i
CC(Sc1cccc[n+]1[O-])C(=O)Nc1cccc(S(=O)(=O)N2CCOCC2)c1 (centres undefined) | -5 | nt | nt | nt | -1.3 | -18 | 0.71 | 0.1 | nt | nt
COc1ccccc1C(C)NCC(=O)NC(=O)NCc1ccco1 (centres undefined) | nt | 5 | 6 | 0.0 | 3.4 | 0 | 0.67 | 1.2 | 3.1 | nt
Cc1ccc(C(C(=O)NC2CCCCC2)N(C(=O)CCCC(=O)Nc2ccccn2)c2ccc3c(c2)OCCO3)cc1 (centres undefined) | -11 | nt | nt | nt | 5.1 | 28 | 0.72 | 1.2 | nt | nt

The list is partial, so the mix of outcomes need not match the whole.
